# Screening results as filed in PubChem BioAssay.
# Anaer choline gr: blocks anaerobic gram-negative growth on choline | AID 1963822 | hit rate 0.2% among 55,000 | Gram-negative bacterium anaerobic choline minimal medium, absorbance growth; hits give low values; many inactives read as strong as hits in the columns shown | calls only;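 active = growth z-score on choline under -2 at 7 or 20 h with little or no fall on glycerol, limits in tiers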;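 note: stock transfer was 300 nL into about 50 µL; the organism is E. coli; final concentration not given here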
# Anaer choline gr early: also measured in Anaer choline gr; calls as there; z-score; measured here: choline growth z-score, timepoint 1;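 score of optical density at 7 h as mean of two plates; lower means less growth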
# The depositor's hits bear a star; i = inactive; & = joins results of further samples. These rows are one share of the data; the hit share may differ from the screen's.
# Results follow in this order: Anaer choline gr, Anaer choline gr early
> COC(=O)c1scc(-c2ccc(C)cc2)c1S(=O)(=O)Nc1ccccc1
→ i, 0.65
> COc1cc(Cl)ccc1OC(=O)c1cc2c(-c3ccccc3F)nn(C)c2s1
→ i, 1.24
> O=C(Nc1cccc(Cl)c1)n1ncc2cc(Cl)ccc21
→ i, 0.21
> Clc1ccc(CNC2=NCCNC23CCCCCC3)cc1
→ i, 1.31
> CN(C)CCNC(=O)C1=Cc2ccccc2OC1
→ i, 0.66
> O=C(C1CC(=O)N(c2ccccc2)C1)N1CCN(c2ncnc3c2nnn3-c2cccc(F)c2)CC1 (stereo unspecified)
→ i, 1.19
> COc1ccc(CN2CCCC2c2cc(C)on2)cc1O (stereo unspecified)
→ i, -0.28
> CCOc1ccc(Oc2cc3c(cc2NS(=O)(=O)c2ccc(F)cc2)n(C)c(=O)c(=O)n3C)cc1
→ i, -0.91
> C=CCNC(=O)COc1cccc2c(=O)n(CC=C)ccc12
→ i, 0.6
> CC(=O)Nc1ccc(S(=O)(=O)N2CCc3c(c(-c4nc(-c5ccccc5)no4)nn3C)C2)cc1
→ i, -0.57
> Cc1cc(-n2nnc(C(=O)O)c2C)ccc1Br
→ i, -0.06
> CC1(C)O[C@@H]2C[C@H]3[C@@H]4C[C@H](F)C5=CC(=O)C=C[C@]5(C)[C@H]4[C@@H](O)C[C@]3(C)[C@]2(C(=O)CO)O1
→ i, -0.1
> COc1ccccc1N1CCN(c2ncc(NC(=O)c3ccccc3Cl)cc2C(=O)O)CC1
→ i, -1.13
> CC(=O)N1CCN(S(=O)(=O)c2cc(N3C(=O)CCS3(=O)=O)ccc2C)CC1
→ i, -0.45
> CC(C)c1ccc(NC(=O)Cn2c3ncccc3c(=O)n2-c2ccccc2)cc1
→ i, -0.8
> CC[N+](C)(CC)CC(=O)Nc1c(C)cccc1C
→ i, -0.14
> Cn1cnc2c(=O)oc3ccc(S(=O)(=O)NCc4ccc5c(c4)OCO5)cc3c21
→ i, 0.7
> Cc1ccc(NS(=O)(=O)c2cc(-c3cc(C(F)(F)F)on3)sc2C)cc1C
→ i, -0.35
> COc1ccc(C(=O)c2ccc(C)cc2)c(O)c1
→ i, 0.18
> O=C(c1cn(CC2CCCO2)cc2c(=O)n(-c3ccccc3)nc1-2)N1CCCc2ccccc21 (stereo unspecified)
→ i, 0.63
> Cc1cc(N2CCN(C)CC2)nc2ccc(NC(=O)Nc3cccc(Cl)c3)cc12
→ i, -0.42
> O=S(=O)(c1ccc(Cl)c(-c2nnc(-c3ccccc3)o2)c1)N1CCN(c2ccccn2)CC1
→ i, 0
> O=C(Cc1ccc(NC(=O)N2CCCCc3ccccc32)cc1)NCc1ccc(Cl)cc1
→ i, -0.16
> CCc1ccc(NC(=O)C2CCN(S(=O)(=O)c3cccc4nsnc34)CC2)cc1
→ i, 0.99
> Cc1ccc(Cn2cc(C(=O)Nc3ccc(S(N)(=O)=O)cc3)ccc2=O)cc1
→ i, 0.38
> Cc1cc(Cl)ccc1OCC(=O)Nc1onc2c1CC(C)CC2 (stereo unspecified)
→ i, 0.93
> COc1cccc(N2CCN(C(=O)c3cc(-c4ccncc4)n(-c4ccc(F)cc4)n3)CC2)c1
→ i, -1.39
> CN(C)CCNc1ccc(-c2nc(-c3ccccc3)no2)nn1
→ i, -1.26
> CCN1CCN(C2=NCCN2S(=O)(=O)CC)CC1
→ i, 0.7
> CC(=O)Nc1cccc(N2CC(C(=O)Nc3nc4ccc(Cl)cc4s3)CC2=O)c1 (stereo unspecified)
→ i, -2.24
> CC(C)(C)NS(=O)(=O)c1ccc2c(c1)N(Cc1noc(C3CCC3)n1)C(=O)CO2
→ i, 0.74
> Cc1cc(C(=O)N2CCCC2c2ccc(Cl)cc2)no1 (stereo unspecified)
→ i, -0.79
> O=S1(=O)c2ccccc2NC(c2ccccc2Cl)N1Cc1ccccc1 (stereo unspecified)
→ i, 1.15
> COc1c2ccoc2cc2oc(=O)ccc12
→ i, 0.25
> Cc1ccc(OC(C)C(=O)N(Cc2ccccc2)C2CCS(=O)(=O)C2)cc1C (stereo unspecified)
→ i, -0.69
> COc1cc2[nH]c(=O)n(Cc3ccc(C(=O)Nc4ccc(C)c(C)c4)cc3)c(=O)c2cc1OC
→ i, -0.35
> CCSc1ncc2c(=O)n(CC(=O)Nc3ccc(OC)c(OC)c3)cnc2n1
→ i, 2.1
> CC(=O)Nc1cc(C(=O)N2CCN(S(=O)(=O)c3ccc4[nH]c(=O)sc4c3)CC2)ccc1C
→ i, 0.16
> COc1ccc(-c2nc3ccccc3s2)cc1NC(=O)Cc1ccc(Cl)cc1
→ i, -0.57
> COc1ccc(C(=O)/C(Br)=C\C(=O)O)cc1
→ i, 0.7
> CC1(C(=O)NCc2ccc(F)cc2F)CCN(C(=O)c2ccc(Br)cc2)CC1
→ i, -1.51
> CC(=O)Nc1ccc(-c2cc(C(=O)NC3CC3)c3ccccc3n2)cc1
→ i, -1.45
> CCCn1c(=O)c2sccc2n2c(SCc3ccc(N4CCCC4=O)cc3)nnc12
→ i, -0.66
> CCOc1ccc(NC(=O)Cn2cnc3c(sc4ncccc43)c2=O)cc1
→ i, -0.18
> CC1CCN(c2c(C(=O)c3ccccc3)cnc3cc4c(cc23)OCCO4)CC1
→ i, 0.14
> COc1cccc(CN(c2nc3nc(C)c(Cl)c(C)n3n2)S(=O)(=O)c2ccc(Cl)cc2)c1
→ i, 1.62
> OC1(Cc2ccccc2)CCNCC1
→ i, 0.12
> COc1ccc(NC(=O)Cc2csc(COc3cccc(C)c3)n2)cc1OC
→ i, 0.73
> Cc1nc2scc(C)n2c(=O)c1N
→ i, -0.64
> COc1ccc(NC(=O)C2CCN(S(=O)(=O)c3cc(-c4noc(C)n4)cs3)CC2)c(OC)c1
→ i, 0.25
> O=C(NCc1nc2cccnc2n1Cc1ccc(F)cc1)c1ccc(F)cc1
→ i, -0.61
> Cc1c(Cl)cccc1S(=O)(=O)N1CCC(c2noc(-c3ccccc3)n2)CC1
→ i, -0.64
> CCCCCC(O)CCCC(=O)O (stereo unspecified)
→ i, -0.14&-0.27
> COc1ccc(Cl)cc1NC(=O)Nc1cccc(-c2nnc(-c3ccccc3)o2)c1
→ i, -1.28
> Cc1nc2c(-c3ccccc3)c(C)[nH]n2c(=O)c1Cc1ccc(Cl)cc1
→ i, -2.08
> Cc1sc(C)c(S(=O)(=O)Nc2cccc(Cl)c2)c1-c1cc(C(F)(F)F)on1
→ i, 1.17
> Cc1ccc(S(=O)(=O)c2ccc(C(=O)NCc3ccc4c(c3)OCO4)cn2)cc1C
→ i, 1.35
> c1cncc(-c2nn3c(-c4ccc5ccccc5n4)nnc3s2)c1
→ i, -0.55
> Cc1nc2nc(C)c(NC(=O)Nc3ccc4c(c3)OCCO4)c(=O)n2[nH]1
→ i, -1.62
> COc1ccc(N2CC(c3nnc(NC(=O)Cc4cccc(F)c4)o3)CC2=O)cc1 (stereo unspecified)
→ i, 0.1

# The results go on:
# Results follow in this order: Anaer choline gr, Anaer choline gr early
> O=C(Nc1ccc(F)cc1F)C1CCN(c2cc(C(=O)N3CCCC3)ccn2)CC1
→ i, -0.3
> Cc1ccc(Cl)cc1N1CCN(C(=O)c2cnc3sc(C)c(C)n3c2=O)CC1
→ i, 1.27
> CC(=O)Nc1ccc2c(c1)nc(CN1CCCCC1)n2C(C)C
→ i, -0.08
> O=C(Nc1ccccc1Cl)N1CCC2(CC1)Nc1ccccc1-n1cccc12
→ i, -0.49
> COc1ccc(S(=O)(=O)N2CCc3cc4ccccc4nc32)c(OC)c1
→ i, -1.25
> COc1ccc(NC(=O)Cn2nc(N3CCN(c4ccc(F)cc4)CC3)ccc2=O)c(OC)c1
→ i, 0.21
> COc1ccc2oc(C)c(C(=O)Nc3cccc(Cl)c3)c2c1
→ i, -0.59
> O=C1CC(c2ccccc2)Cc2[nH]c(=O)c(C(=O)Nc3ccc4c(c3)OCCO4)cc21 (stereo unspecified)
→ i, 0.26
> COc1ccc(C(=O)Nc2ccc(C3(C(=O)NCC4CCCO4)CC3)cc2)cc1 (stereo unspecified)
→ i, 0.17
> CCc1nc(-c2cc(S(=O)(=O)NC)ccc2OC)no1
→ i, 0.12
> O=C(CN1C(=O)CCCc2ccccc21)NC1CCCCC1
→ i, 1.22
> Cc1nc2ccccc2c2oc(C(=O)NCCC3=CCCCC3)cc12
→ i, 1.83
> O=C(CN1C(=O)CSc2ccc(C(=O)N3CCCC3)cc21)NC1CCCCC1
→ i, -0.97
> CC(=O)N1CCc2cc3cccc(C)c3nc21
→ i, 0.31
> COC(=O)c1sccc1NC(=O)NCc1cccn1Cc1ccc(Cl)cc1
→ i, 0.9
> CCn1c(=O)c(N2CCN(C(=O)c3cccc(N(C)C)c3)CC2)nc2ccccc21
→ i, -1.98
> O=C(NC1CCCc2ccccc21)C1CCCN(c2ccc(-c3ccccc3)nn2)C1 (stereo unspecified)
→ i, -0.52
> Cc1ccc(-c2cc(NC(=O)CCC(=O)O)c(=O)[nH]n2)cc1
→ i, -0.65
> Cc1ccc(-c2ccc(-n3nc(C)c(S(=O)(=O)N4CCN(C(C)C)CC4)c3C)nn2)cc1C
→ i, -0.48
> O=C(NCc1cccc(Br)c1)c1cnn(-c2ccccc2)c1-n1cccc1
→ i, 1.06
> Cn1nc(CO)c2c1CCNC2
→ i, 0.25
> CC(Oc1ccccc1)c1nc(Cn2c(=O)oc3ccccc32)no1 (stereo unspecified)
→ i, -0.52
> c1ccc(-c2nc3cnc(N4CCN(c5ccccc5)CC4)nc3o2)cc1
→ i, 0.09
> Cc1ccc(-c2[nH]nc3nc(-c4ccc(O)c(O)c4)cc(C(=O)O)c23)cc1
→ i, 0.37
> CN1CCN(c2ccc3cc(S(=O)(=O)N4CCOCC4)ccc3n2)CC1
→ i, -1.55
> COc1cc(-c2noc(-c3ccccc3)n2)ccc1OCC(=O)Nc1cccc(C)c1
→ i, 0.47
> Cn1cc(-c2nc(-c3ccc4c(c3)OCO4)no2)c(=O)c2cc(F)c(N3CCOCC3)cc21
→ i, -1.16
> Cc1ccc2cnn(CCCC(=O)NCCc3ccccc3)c2c1
→ i, -0.09
> COc1ccccc1OCCCCn1c(CN2CCCCC2)nc2ccccc21
→ i, -0.23
> COc1ccc(C2=CC(c3ccc(Br)cc3)n3ncc(C(=O)Nc4ccccc4)c3N2)cc1 (stereo unspecified)
→ i, 0.03
> O=C(O)Cc1ccc(-c2ccccc2)cc1
→ i, 0.43
> O=C(C1CCN(c2cc(N3CCOCC3)ncn2)CC1)N1CCSCC1
→ i, 0.76
> CCn1c(C)c(-c2nc(C3CC3)no2)c(S(=O)(=O)N2CCC(C)CC2)c1C
→ i, 0.17
> CC(C)c1csc(C2CCN(C(=O)C3CC3)CC2)n1
→ i, 0.57
> N[C@@H](C(=O)O)c1ccc(O)c(C(=O)O)c1
→ i, 0.62
> COc1cccc(C(=O)Oc2cccc(-n3cnnn3)c2)c1
→ i, -0.18
> O=S(=O)(c1ccc(NCCc2c[nH]c3ccccc23)nn1)C1CCCCC1
→ i, 0.24
> Cn1c(=O)c2cn3c(c2n(C)c1=O)C(c1cc(Cl)ccc1O)Nc1ccccc1-3 (stereo unspecified)
→ i, -1.19
> Cc1cc(N2CCC(C)CC2)n2nc(CN3CCC4(CC3)OCCO4)nc2n1
→ i, -1.14
> Cc1noc(C)c1CSc1nc2[nH]ncc2c(=O)n1-c1ccccc1
→ i, -0.26
> CCCN1CCN(c2ncnc3sc(C(=O)NC4CCCC4)c(C)c23)CC1
→ i, 0.1
> CCOC(=O)c1c(C)[nH]c(CCC(=O)NC2CCN(Cc3ccccc3)CC2)c1C
→ i, 0.07
> O=C(CSc1nccnc1N1CCN(c2ccc(F)cc2)CC1)Nc1ccc2c(c1)OCO2
→ i, -0.31
> COCCCNC(=O)c1ccc(Sc2ccc(NS(=O)(=O)c3cc(C)ccc3C)cc2)nc1
→ i, 0.51
> COc1cccc(CNC(=O)N2Cc3cccn3-c3ccccc32)c1
→ i, -0.53
> COc1ccc(N2CCN(C(=O)c3cnc4sccn4c3=O)CC2)cc1
→ i, -1.01
> CC(=O)N(Cc1cccnc1)c1nc2ccc(Cl)cc2s1
→ i, 0.79
> O=C1CC(c2ccc(O)cc2)c2cnn(-c3nc4ccccc4s3)c2N1 (stereo unspecified)
→ i, 0.36
> CCc1ccc(C(=O)c2cn(CC(=O)Nc3ccc(Cl)cc3)c3nc(C)ccc3c2=O)cc1
→ i, 1.35
> O=C(Nc1ccccc1SCc1nnc(-c2ccccc2)o1)c1ccc2c(c1)OCO2
→ i, 2.04
> CCc1ccc2c(c1)[C@H]1OCC[C@H]1C(c1ccc(C(=O)OC)cc1)N2 (stereo partly specified)
→ i, 0.95
> Cc1ccc2nc(NC(=O)c3ccc(S(=O)(=O)N4CCc5ccccc5C4)cc3)sc2c1
→ i, 0.11
> CNC(=O)c1ccc(-c2nc3cc(NS(=O)(=O)c4ccccc4Cl)ccc3n2C)cc1
→ i, 0.02
> Cc1ccc2cc3c(nc2c1)N(C(=O)C(C)(C)C)CC3
→ i, -0.31
> Cc1nnc(-c2c(C)[nH]c(C)c2S(=O)(=O)NCCC(C)C)o1
→ i, 0.5
> CC(C)(C)NC(=O)c1ccc(-c2cc(NC3CCCCC3)ncn2)cc1
→ i, 0.17
> Cc1ccc(-n2nc(N3CCN(C(=O)CCn4nc(C)cc4C)CC3)ccc2=O)cc1
→ i, -0.87
> CC(C)(C)c1nnc(Nc2ccccc2)[nH]c1=O
→ i, -0.91

# Quoted from the listing, six compounds:
# Results follow in this order: Anaer choline gr, Anaer choline gr early
> CCCN1CCN(c2ncnc3sc(C(=O)NC4CCCC4)c(C)c23)CC1
→ i, 0.1
> CCOC(=O)c1c(C)[nH]c(CCC(=O)NC2CCN(Cc3ccccc3)CC2)c1C
→ i, 0.07
> O=C(CSc1nccnc1N1CCN(c2ccc(F)cc2)CC1)Nc1ccc2c(c1)OCO2
→ i, -0.31
> COCCCNC(=O)c1ccc(Sc2ccc(NS(=O)(=O)c3cc(C)ccc3C)cc2)nc1
→ i, 0.51
> COc1cccc(CNC(=O)N2Cc3cccn3-c3ccccc32)c1
→ i, -0.53
> COc1ccc(N2CCN(C(=O)c3cnc4sccn4c3=O)CC2)cc1
→ i, -1.01
